rRNA inh HTS – inhibitors of bacterial rRNA selective over humanized ribosomes; 350,000 tested, 1.6% active; GFP signal change (wild-type ribosome), % (concentration not given with the values); E. coli WT GFP vs humanized-ribosome RFP mutants, fluorescence, 24 h; active compounds read low; DMSO median 0, no signal -100;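 active = significant combined selectivity score with lowered wild-type GFP, culture density cut under 30%, mutant RFP and density less affected; inactive = any of these conditions unmet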; also: one replicate is shown; some compounds called inactive have numbers as strong as hits
RanGTP-Impb inh – inhibitors of RanGTP-importin-beta interaction, primary screen, biochemical, FRET, CFP-Ran, YFP-importin-beta, homogeneous; cell-free CFP-Ran/YFP-importin-beta FRET ratio; inhibition, % (test concentration not listed); 300,000 tested, 1.1% active;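 active = most replicates above 15%; inconclusive = exactly half above 15%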;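 also: 0% = DMSO wells and 100% = Ran loaded with GDP instead of GTP; wells of about 40 µL received 100 nL stock; the first replicate is given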
Beta cell apopt – beta cell apoptosis inhibition | INS-1E cytokine-induced death, ATP luminescence, 48 h; percent of positive-control rescue, neutral wells zero | 300,000 tested, 0.8% active | protection from apoptosis, % (no concentration beside the values);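 active = all replicates at 75% or more, or half of them and the mean; inconclusive = half reach 75% but not the mean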;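 also: 0% = cytokine-treated negative control wells and 100% = positive control rescue; higher means more ATP so stronger rescue from cytokine killing; wells of about 40 µL received 100 nL stock; the first replicate is given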
Bfl-1 A1 inh – inhibitors of the anti-apoptotic protein A1, read as caspase activation; AID 2462; caspase activation, % (test concentration not listed); 330,000 tested, 0.066% active; MEF A1-2A-BIM cells, Caspase-Glo 3/7 luminescence, 3 h; percent of clofoctol response, vehicle zero;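 active = over half of replicate activation scores above 10%, or exactly half above 10 with the replicate mean above 10; inconclusive = replicate mean below 10 yet half the replicates above 10; inactive = over half of replicates below 10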;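 also: wells of about 30 µL received 50 nL stock; many hits fall short of the cut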
Vif A3G – inhibitors of Vif binding to APOBEC3G peptide, primary screen, biochemical, TR-FRET, GST-Vif 1-94, biotin-A3G peptide, dose response retest (AID 1117319). TR-FRET GST-Vif / biotin-A3G peptide binding; higher % means a stronger effect; test concentration not given here; strong numbers were not always called active. inhibition, %; hits with a dose series show IC50 in µM. 260,000 tested, 0.57% active;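 active = above the screen mean plus three standard deviations and confirmed in dose response; inconclusive = results disagree or hit not tested in dose response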;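 also: Vif residues 1-94 fused to GST binding biotinylated APOBEC3G peptide 110-148; 0% = full assay without inhibitor and 100% = GST in place of GST-Vif; retest series ran down from 100 µM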
T cruzi inh – T. cruzi replication inhibition; T. cruzi beta-gal in NIH3T3, luminescence, 90 h; inhibition, % (no concentration beside the values); 300,000 tested, 1.4% active; AID 1885;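 active = mean inhibition across valid replicates above about 55%, limit read from the data; inconclusive = mean below that limit but half or more replicates reach it; inactive = mean below it, under half of replicates reach it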;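 also: signal also drops with host cell toxicity which is not excluded here; 0% = plate median of DMSO wells and 100% = zero luminescence signal; higher percent means less beta-gal luminescence so fewer parasites; stock transfer was 50 nL into about 50 µL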
Calb FLC – affects C. albicans growth with fluconazole | 300,000 tested, 0.57% active | growth inhibition, % (concentration not given with the values) | C. albicans CaCi-2 (fluconazole-resistant clinical isolate) + fluconazole, Alamar Blue growth, 48 h | AID 1979;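 active = most replicates above 75%; inconclusive = exactly half above 75%; inactive = most below 75%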;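 also: all wells also contain fluconazole at 8 µg/ml as a sub-toxic cotreatment; 0% = median of DMSO wells and 100% = median of geldanamycin control wells; wells of about 8 µL received 7.5 nL stock; the first replicate is given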
MLL AF4-AF9 inh – inhibitors of human MLL-AF4/AF9 interaction; P42568; AlphaScreen, biotin-AF4 peptide binding to FLAG-AF9; inhibition, % at 10 µM; 350,000 tested, 0.47% active;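 active = every replicate reaching a set inhibition limit, whatever the replicate mean, cut at about 25% in these data; inconclusive = mean inhibition reaches that limit but some replicates miss it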;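 also: 0% = plate neutral control median and 100% = total signal loss; the record names both 10 and 1 µM as test concentration; the first replicate is given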
Target sequence (P42568 whole entry, looked up): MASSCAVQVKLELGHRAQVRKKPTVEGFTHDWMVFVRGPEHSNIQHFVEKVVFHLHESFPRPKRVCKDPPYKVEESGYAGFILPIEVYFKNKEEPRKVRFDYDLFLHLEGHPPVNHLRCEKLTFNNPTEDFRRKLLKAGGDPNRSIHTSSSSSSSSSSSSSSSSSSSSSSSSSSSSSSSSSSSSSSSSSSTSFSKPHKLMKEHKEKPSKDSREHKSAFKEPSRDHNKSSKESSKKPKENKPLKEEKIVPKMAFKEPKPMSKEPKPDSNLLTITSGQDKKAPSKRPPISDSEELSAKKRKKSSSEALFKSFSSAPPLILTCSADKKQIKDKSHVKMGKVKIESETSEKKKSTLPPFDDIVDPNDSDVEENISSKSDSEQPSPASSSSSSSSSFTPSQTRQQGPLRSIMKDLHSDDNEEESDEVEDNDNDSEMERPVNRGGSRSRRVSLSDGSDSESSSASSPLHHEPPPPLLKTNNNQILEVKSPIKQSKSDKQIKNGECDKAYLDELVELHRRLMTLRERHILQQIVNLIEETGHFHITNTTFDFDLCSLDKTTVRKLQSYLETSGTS
rRNA inh HTS OD600 – recorded beside rRNA inh HTS, whose call it bears; OD600 change, %; measured here: OD600 growth;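 optical density of the mix in the first replicate; 0 = DMSO median and -100 = no signal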
rRNA inh HTS RFP – recorded beside rRNA inh HTS, whose call it bears; RFP signal change, %; measured here: RFP humanized mutant strains;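 first replicate; 0 = DMSO median and -100 = no signal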
Numbers without * were called inactive; ? = inconclusive; . = no result given; & = joins results of further samples; ! = repeats disagree. Only part of the results is shown. The share of hits here may be higher or lower than overall.

SMILES	rRNA inh HTS	rRNA inh HTS OD600	rRNA inh HTS RFP	RanGTP-Impb inh	Beta cell apopt	Bfl-1 A1 inh	Vif A3G	T cruzi inh	Calb FLC	MLL AF4-AF9 inh
c1ccc(NCc2nc(-c3ccccc3)no2)cc1	.	.	.	5.0	4	-0.4	-4%	-8	-13	.
CCCc1nc(N2CCN(C)CC2)c2sc(=S)n(-c3ccccc3)c2n1	5	-3	-0.1	-3.7	10	0.1	-2%	45	-8	3.3
Cc1nc(-c2ccccc2)ccc1C(=O)O	9	11	-3.6	1.1	-3	-1.1	6%	-10	15	-0.2
Cn1ncc(Cl)c1C(=O)N1CCN(S(=O)(=O)c2ccc(F)cc2)CC1	0	1	-1.2	?	-8	0.9	.	8	6	-2.2
COCCNC(=O)C(=O)Nc1ccc(Br)cc1	.	.	.	1.4	-4	-0.1	4%	-1	-18	.
COc1cccc(/C=C2\Oc3cc(OCC(=O)N4Cc5ccccc5C[C@H]4C(=O)O)ccc3C2=O)c1	.	.	.	-2.7	.	0.1	.	-10	16	.
CCOC(=O)c1ccc(NC(=O)NCc2cccnc2)cc1	-6	-6	1.0	2.3	101*	-0.2	.	4	6	-0.3
COc1ccc(CCNC(=O)CN2C(=O)c3ccccc3S2(=O)=O)cc1	.	.	.	2.2	-3	0.1	-4%&-5%	5	-5	.
O=C(N/N=C/c1ccccn1)C(O)c1ccccc1 (stereo not given)	26	13	3.4	-1.4	.	0.6	-3%	-6	-3	-0.2
Cc1ccc(C)c(S(=O)(=O)N2CCN(C(=O)/C=C/c3ccco3)CC2)c1	10	2	4.4	.	-9	-1.2	9%	.	.	-1.3
CC(=O)C(=Cc1cn(-c2ccccc2)nc1-c1ccccc1)C(C)=O	8	5	0.1	.	13	0.5	-4%	-2	.	8.6
O=C(CN1C(=O)NC2(CCCC2)C1=O)N1CCN(S(=O)(=O)c2ccc(Cl)cc2)CC1	10	9	2.2	1.7	-4	1.2	2%	-18	-23	-4.1
COc1ccc(CCN2CC(C(=O)NCCc3ccccc3)CC2=O)cc1OC (stereo not given)	5	1	-4.0	0.2	-6	-0.4	15%	-7	-9	-1.1
Cc1nc2c(-c3ccccc3)c(C)nn2c(SCC(N)=O)c1Cc1ccccc1	20	11	0.3	1.5	-7	0.0	-8%	32	15	.
COc1ccc([N+](=O)[O-])cc1NC(=O)c1ccccc1SC	16	11	-0.7	-2.8	0	1.1	8%	-6	0	-4.9
COc1ccc2nc(SC(C(=O)c3ccccc3)c3ccccc3)nc(C)c2c1 (stereo not given)	17	9	4.9	?	7	-0.6	-4%	40	5	1.6
COc1ccc(S(=O)(=O)Cc2ccc(C(=O)NCc3ccc(C)cc3)o2)cc1	-2	-7	-1.0	22	-7	0.7	.	-1	4	-13
COc1cc(OC)cc(C(=O)N2CCN(S(C)(=O)=O)CC2)c1	.	.	.	-0.2	-4	0.9	16%	-13	2	.
CC1CCN(CC(=O)Nc2ccc(Br)cc2[N+](=O)[O-])CC1	13	8	-1.0	3.7	-3	?	-2%	19	12	3.9
O=C(Nc1ccccc1C(=O)Nc1ccccc1)c1ccccc1Br	6	9	1.2	1.6	-3	0.8	.	22	-3	-0.4
CCOC(=O)N1CCN(c2nc(C)c3c(n2)CC(C)CC3=O)CC1 (stereo not given)	.	.	.	.	8	0.9	16%	13	-6	.
COc1ccc(NC(=O)CN2C(=O)COc3ccc(S(=O)(=O)N4CCCCC4)cc32)c(OC)c1	-12	0	6.7	7.6	1	0.9	.	13	-8	1.6
COc1cccc(OCCNC(=O)c2cccc(OC)c2)c1	.	.	.	-3.1	8	0.4	12%	-19	-4	.
Cc1ccccc1-n1nnnc1SC1CCOC1=O (stereo not given)	.	.	.	0.6	-6	-0.3	2%	8	.	.
CN(CCO)c1cc(Sc2nc3ccccc3s2)c2nonc2c1[N+](=O)[O-]	2	9	19	-12	56	1.6	43µM*!	46	?	5.0
COCCNC(=O)c1ccc2c(c1)ncn2-c1ccc(F)c(F)c1	.	.	.	1.2	-6	-0.3	4%	-17	-3	.
CN(CC(=O)Nc1ccccc1Br)C(=O)c1ccccc1OCc1ccc(F)cc1	-22	-48	-17	.	-2	1.6	1%	.	.	-0.9
COc1ccc(NC(=O)CSc2nnc(C)c(=O)n2N)cc1	.	.	.	1.5	-17	-0.4	1%	-13	-5	-1.2
COc1ccc(C2=NN(C(=O)CSc3nc4ncc(Cl)cc4[nH]3)C(c3ccco3)C2)cc1 (stereo not given)	-3	-1	2.3	-4.2	-1	-0.8	6%	11	24	1.0
COc1cccc(NC(=O)N2CCCc3ccccc32)c1	0	4	-1.5	1.4	1	1.1	8%	-7	-18	-11
O=C(Cn1cc2c(n1)CCCC2)NCc1cccnc1	7	13	-1.7	-3.8	-1	-0.1	74%	-8	3	-5.6
N/C(CSc1nc(-c2ccccc2)c(-c2ccccc2)o1)=N\O	.	.	.	4.5	-11	0.2	0%	10	2	.
CC(O)Cn1c(N2CCCC2)nc2c1c(=O)n(C)c(=O)n2C (stereo not given)	12	14	-1.1	2.3	-1	0.2	.	-1	-2	1.3
CC(C)n1cnc2c(Nc3cccc(Cl)c3)nc(NCCCO)nc21	-51	-74	-19	0.6	5	-0.8	.	19	9	9.3
COc1ccc(CNc2n[nH]c(NCc3ccc(OC)c(OC)c3)n2)cc1OC	.	.	.	-3.2	7	-0.3	10%	10	-5	.
COc1cc2[nH]c(=O)n(CCC(=O)N3CC=C(c4ccccc4)CC3)c(=O)c2cc1OC	.	.	.	1.7	-1	-0.5	-2%	-3	-8	.
CC(C)(CO)Nc1nc(Cl)nc(NC2CCCCC2)n1	-19	-12	1.2	-1.1	-4	-0.1	7%	20	4	-2.0
CCCCCCCCOC(=O)C[N+](C)(C)C/C=C(/C)Cl	-35*	-9.7*	14*	-0.1	7	1.2	.	-18	-18	0.9
CCC(=O)N(c1ccc(C(=O)O)cc1)c1nc(-c2ccc(OC)cc2)c(C)s1	16	10	-0.4	-1.7	-5	0.6	29%	1	11	-3.2
CCOC(=O)COc1ccc(S(=O)(=O)N2CCN(c3ccccc3)CC2)cc1	.	.	.	2.0	6	0.9	-3%	0	0	.
Cc1c(-c2ccc(F)cc2)[n+](=O)c2c(n1[O-])CCCCC2	9	11	-0.4	12	-4	-1.0	1%	-29	-26	-1.5
CC1CCC(C(C)C)C(OC(=O)CSc2nnc(N)s2)C1 (stereo not given)	.	.	.	2.9	-6	-0.1	-4%	-1	3	.
COc1ccc(S(=O)(=O)N2CCCCC2)cc1NC(=S)Nc1cccc(Cl)c1C	.	.	.	1.8	-1	1.5	20%	10	22	.
COc1ccc(/C=C\c2cc(OC)c(OC)cc2CC[N+](C)(C)C)cc1OC	.	.	.	0.6	-1	-0.2	-3%	1	24	-0.2
ONC(=Nc1cccc(C(F)(F)F)c1)c1cccnc1	.	.	.	-0.9	-5	0.8	-4%	-7	-7	-3.2
CCOC(=O)N1CCN(S(=O)(=O)c2ccc(OC)c(C(=O)N3CCCCC3)c2)CC1	1	8	-1.5	1.4	-3	0.0	.	3	-18	6.0
O=C(NCN1C(=O)C2C3C=CC(C3)C2C1=O)Nc1nncs1 (stereo not given)	.	.	.	?	-2	0.2	11%	-19	-3	.
Cc1nn(C(C)C(=O)c2cccc(Cl)c2)c(C)c1[N+](=O)[O-] (stereo not given)	-2	-2	-3.0	-0.7	4	-0.2	-6%	-12	16	-1.6
CCC(CC)NC(=O)c1ccc(NS(=O)(=O)c2ccc3[nH]c(=O)[nH]c3c2)cc1	5	9	5.0	3.5	-3	-0.3	.	-29	23	-0.9
CCN(C=NC1=NN(c2cccc(C(F)(F)F)c2)CC1)CC	.	.	.	4.3	-9	0.5	.	21	-3	.
Cc1ccc(NC(=O)CN(C)C(=O)CCOc2ccccc2C)cc1	6	4	2.0	2.1	0	1.2	18%	-10	1	-1.2
O=C(N/N=C/c1ccc(OC(=O)c2ccccc2)c([N+](=O)[O-])c1)c1ccc(O)cc1	.	.	.	1.8	3	-9.5	2%	8	17	.
NS(=O)(=O)c1ccc(CCNC(=O)CCc2ccccc2)cc1	11	4	2.8	3.7	.	2.4	.	0	0	0.2
Cc1ccc(-n2nc(-c3cccs3)cc2C(=O)NCC2CCCO2)c(C)c1 (stereo not given)	.	.	.	3.0	6	0.2	2%	15	3	.
CC(=O)N1CCOc2ccc(S(=O)(=O)N3CCC(C(=O)Nc4ccc(C)cc4C)CC3)cc21	-2	-2	-4.5	-2.2	0	2.3	.	-21	0	0.1
CCCCN(C(=O)Nc1ccc(Cl)cc1)C1CCN(C(C)=O)CC1	.	.	.	0.8	-4	0.0	1%	8	-4	.
Cc1ccc2[nH]c(-c3ccccc3)c(CN3CCCC3)c(=O)c2c1	5	-1	0.1	2.6	2	0.2	.	31	15	6.3
CCOc1ccccc1NC(=O)NC1Cc2ccccc2C1	.	.	.	0.7	-1	1.0	-4%	2	-5	.
CSc1nc(C)c(C(=O)C[n+]2ccccc2)cc1C#N	7	5	-5.4	-0.3	3	-0.2	.	-28	-11	2.9
O=C(COc1ccc(Cl)cc1)Nc1ccccc1CO	.	.	.	1.5	.	0.5	0%	-3	-3	.

Next records follow.
SMILES	rRNA inh HTS	rRNA inh HTS OD600	rRNA inh HTS RFP	RanGTP-Impb inh	Beta cell apopt	Bfl-1 A1 inh	Vif A3G	T cruzi inh	Calb FLC	MLL AF4-AF9 inh
O=C(NC1CCCCC1)c1ccc(N2CCCC2=O)cc1	.	.	.	0.8	-1	-0.1	25%	-5	9	.
COC(=O)c1cn(C(=O)c2ccc(C)cc2)c2ccccc12	-7	-10	0.7	3.1	-2	0.3	.	-4	-16	-1.4
Cc1ccc(/C=C/C(=O)Nc2cc(S(=O)(=O)N3CCOCC3)ccc2N2CCOCC2)cc1	.	.	.	.	2	0.6	-3%	.	.	10
COc1cccc(C(=O)Nc2ccc(C(=O)NCC3CCCO3)cc2)c1 (stereo not given)	1	-3	0.5	-9.3	3	-0.8	.	.	15	-8.7
CCOc1ccc(NC(=O)c2cc3ccccc3cc2OC)cc1	4	11	-3.1	1.5	13	-1.6	.	-9	-4	0.2
CCN(CC)c1ccc(NC(=O)Nc2cccc(C(C)=O)c2)cc1	.	.	.	-6.3	2	0.3	15%	5	-4	.
CCc1nnc(NC(=O)CSc2nnc(-c3cc4ccccc4cc3O)n2CCOC)s1	.	.	.	-1.7	-6	0.2	2%	1	-14	.
COc1ccc(/C(O)=C/Sc2nnc(Cc3ccccc3)o2)cc1	.	.	.	-1.0	0	-0.2	3%	4	1	.

Compound activity as filed in PubChem BioAssay.
